CDC25B CDK2 inh: human CDC25B-CDK2/CyclinA binding inhibition; P30305+P24941; HTRF CDC25B-CDK2/CyclinA binding, anti-His/anti-Flag; hits give high values; z-score (concentration not given with the values); 0.72% of 94,000 active;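 also: score is relative to mean and SD of negative controls; strong numbers were not always called active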
TAR Tat displ: HIV-1 TAR-Tat binding disruption; HIV-1 TAR RNA, Tat peptide displacement FRET; hits give high values; z-score (test concentration not listed); 0.6% of 100,000 active; AID 1259389;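 also: score is relative to mean and SD of negative controls; some compounds called inactive have numbers as strong as hits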
* marks the source's active call; other numbers are inactive results; x = no result given.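 The calls were made as follows: active = z-score from 3 up in half or more of its runs; inactive = the rest.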

SMILES	CDC25B CDK2 inh	TAR Tat displ
Cc1cc(C)c(C#N)c(SCC(=O)Nc2ccc(F)cc2)n1	-0.92	x
CCC(CC)C(=O)Nc1nc(-c2ccc(Br)cc2)ns1	0.77	1.1
COc1ccc(C2C3=C(CC(C)(C)CC3=O)Nc3c2ccc2ncccc32)c(OC)c1 (centres undefined)	0.19	x
C/C(=N\Nc1c([N+](=O)[O-])cc(C(F)(F)F)cc1[N+](=O)[O-])c1cccnc1	-1.1	x
Cc1ccc(Nc2c(-c3ccc(C(C)C)cc3)c(=O)c2=O)cc1C	x	1.7
CCOc1ccc(-c2ccc(NS(=O)(=O)c3ccc(C)c(C)c3)cc2)nn1	x	0.16
CN(C(=O)Cn1ncc2c([nH]c3ccccc32)c1=O)c1ccc(F)cc1	x	-1.1
COc1cccc(OC)c1C(=O)NC(=O)Oc1c(F)cccc1F	-0.99	x
Cc1ccc(CNS(=O)(=O)c2ccc3c(c2)CCCC(=O)N3)o1	x	2.5
Cc1nn(C(C)C(=O)NCCN2CCOCC2)c(=O)c2c1sc1ccccc12 (centres undefined)	-2.1	1.5
O=C1c2cccc3cccc(c23)C(=O)N1c1ccc(Cl)cc1	-1.6	-0.78
Cc1ccc(C(=O)NCC2CCCO2)cc1N1CCCC1=O (centres undefined)	-0.43	x

Looked up by structure from the list above:
SMILES	CDC25B CDK2 inh	TAR Tat displ
O=C1c2cccc3cccc(c23)C(=O)N1c1ccc(Cl)cc1	-1.6	-0.78
Cc1ccc(CNS(=O)(=O)c2ccc3c(c2)CCCC(=O)N3)o1	x	2.5

The list goes on:
SMILES	CDC25B CDK2 inh	TAR Tat displ
CC1=Nc2ccccc2NC(C)(C)C1	1.4	x
NC(=O)Cn1cnc2c(sc3ncccc32)c1=O	x	1.5
CSc1nc(SC)c(C#N)c(-c2ccco2)n1	-1.2	x
Cc1cccc(-c2nn3c(C(F)(F)F)nnc3s2)c1	-0.32	1
CSc1nc2n(n1)C(C(C)C)C(C(=O)Nc1ccc(C)cc1C)=C(C)N2 (centres undefined)	2	0.28
S=C(NCCCN1CCOCC1)N1CC2CCC(CC2)C1	-1.5	x
O=c1c(S(=O)(=O)c2ccc(F)cc2)cn(Cc2ccc(F)cc2)c2ccc(F)cc12	-1.3	0.17
C=CCc1cccc(C2Nc3ccccc3NC3=C2C(=O)CC(C)(C)C3)c1O (centres undefined)	1.4	0.38
Nc1ccc(/C=C/c2nc3ccccc3[nH]2)cc1	-2.9	1.8
CC(C)(C)C1CCc2[nH]c3ccccc3c2C1 (centres undefined)	-1.3	-1.2
CCCc1c(C(=O)NC2CCN(Cc3ccccc3)CC2)cnn1-c1ccccc1	-1.2	x
c1ccc2c(CCc3ccncc3)c[nH]c2c1	-1.3	x
CCOC(=O)c1ccc2nc(NC(=O)COC(=O)c3cc4ccccc4o3)sc2c1	-4.4	x
CN1CCN(CCNC(=O)Cn2cc3c(n2)CCCC3)CC1	0.12	0.88
CCC(C)NC(=O)c1ccc(N2CCOc3ccc(Cl)cc32)s1 (centres undefined)	x	-0.4
NC(=O)c1ccc2c(=O)n3c(nc2c1)CCCC3	-1.8	0.54
COc1ccc(C2Nc3c(C)cc(C)cc3-c3cc(C)nn32)cc1OC (centres undefined)	-1.6	1.6
CS(=O)(=O)NCCc1ccncc1	-0.92	x
Cc1nnc(N2C(=O)C(=O)/C(=C(/O)c3ccccc3)C2c2cccc(Oc3ccccc3)c2)s1 (centres undefined)	-0.44	x
CCOC(=O)C1=C(C)Nc2nnnn2C1c1ccc(OC)c(Br)c1 (centres undefined)	-0.36	-2.3
COc1ccc(-c2nc(=S)[nH][nH]2)cc1OC	-2.4	x
Cc1cc(C)cc(NS(=O)(=O)c2ccc3c(c2)NC(=O)C(C)CS3)c1 (centres undefined)	x	-0.35
Cc1cc2c(n1-c1ccc(C(=O)O)cc1)CCCCC2	2.6	0.97
Cc1nc2ccccc2c2oc(C(=O)N3CCc4ccccc4C3)cc12	-1.3	0.96

By substructure, the entries above containing a furan ring, fused or not (4)
SMILES	CDC25B CDK2 inh	TAR Tat displ
Cc1ccc(CNS(=O)(=O)c2ccc3c(c2)CCCC(=O)N3)o1	x	2.5
CSc1nc(SC)c(C#N)c(-c2ccco2)n1	-1.2	x
CCOC(=O)c1ccc2nc(NC(=O)COC(=O)c3cc4ccccc4o3)sc2c1	-4.4	x
Cc1nc2ccccc2c2oc(C(=O)N3CCc4ccccc4C3)cc12	-1.3	0.96

New compounds follow.
SMILES	CDC25B CDK2 inh	TAR Tat displ
COc1ccc(OC)c(NC(=O)c2cc(C(C)C)n(C3CCS(=O)(=O)C3)n2)c1 (centres undefined)	-1.2	0.91
CCC(C)(C)C1CCc2sc3ncnc(NCCCN4CCOCC4)c3c2C1 (centres undefined)	0.73	x
O=C(CSc1ncn[nH]1)Nc1ccc(C(=O)NC2CCCC2)cc1	-2.4	1.4
CCn1c(C(=O)N2CCC(C(=O)NC3CCC(C)CC3)CC2)cc2sccc21 (centres undefined)	-0.58	-0.89
O=S1(=O)NC(c2cccc(Br)c2)Nc2ccccc21 (centres undefined)	x	0.74
CC1CCN(S(=O)(=O)c2ccc3c(c2)N(CC(=O)N2CCC(C(N)=O)CC2)C(=O)CO3)CC1	-1.7	-0.74
Fc1ccc(Nc2nc3ccccc3c3nncn23)c(F)c1	0.81	0.92
CC(C)c1cc(C(=O)NCc2cccs2)no1	-0.35	-0.45
C=CCc1ccccc1OCCn1c(C(O)CC)nc2ccccc21 (centres undefined)	-2.1	0.01
FC(F)(F)c1cnc(CN2CCSCC2)c(Cl)c1	-1.5	x
CCc1cc2c(N3CCC(C(=O)NCCCOC(C)C)CC3)ncnc2s1	x	-0.94
CSc1nc(C)nc(-c2ccccc2)c1C#N	-0.27	x
Cc1ccc2nc(-c3cccc(S(=O)(=O)N4CC(C)OC(C)C4)c3)cn2c1 (centres undefined)	-0.9	-0.51
COC(=O)/C(C#N)=C/c1cccn1CCCn1ccnc1	0.31	x
O=C(c1ccncc1)N1CCN(c2nc(-c3ccc(Cl)cc3)no2)CC1	x	0.1
Cc1cc(NS(=O)(=O)c2ccc(NC(=O)c3snnc3C)cc2)nc(C)n1	-1.3	2
Cn1c2ccccc2c2cnn(CC(=O)NCCCN3CCOCC3)c(=O)c21	-0.72	0.42
CC(C)C1C(=O)Nc2ccc(S(=O)(=O)N3CCN(c4cccc(Cl)c4)CC3)cc21 (centres undefined)	x	2.4
O=C(c1cc(-c2ccccc2)no1)N1CCCC1c1cccc(F)c1 (centres undefined)	-0.79	-1
Cc1cc(S(=O)(=O)[C@H]2CS(=O)(=O)C[C@@H]2NCCc2ccc(Cl)cc2)ccc1F	0.59	1.9
O=C(CN1C(=O)CSc2ccc(S(=O)(=O)N3CCCC3)cc21)N1CCc2ccccc2C1	x	1.9
O=C(Nc1ccc(Br)c(C(F)(F)F)c1)C1COc2ccccc2O1 (centres undefined)	-1.3	x
CCOC(=O)c1ccc(NC(=O)c2cc3ccccc3c(=O)o2)cc1	-0.71	x
O=C(N/N=C/c1ccco1)c1cccnc1	0.17	x
CC(C)CCC1=NN(C(=O)c2ccc(Br)cc2)C(O)(C(F)(F)F)C1 (centres undefined)	-0.33	x
CC(C)C1c2cccn2CCN1C(=O)Nc1ccc(F)cc1F (centres undefined)	x	1.3
CC1(C)CC(=O)C2=C(C1)Nc1[nH]c(=S)[nH]c(=O)c1C2c1ccc(Cl)cc1 (centres undefined)	-0.37	x
O=C(c1ccncc1)N(c1ccc2oc(=O)sc2c1)S(=O)(=O)c1ccc(Br)cc1	-0.85	-0.54
CCc1ccc(S(=O)(=O)c2nnn3c2nc(NCc2ccco2)c2ccccc23)cc1	-1.6	-0.25
CC(=O)NC(CCS(C)(=O)=O)C(=O)Nc1cc(C)on1 (centres undefined)	-0.25	1.9
O=C(CSc1nc2ccc(N3C(=O)C4C5C=CC(C5)C4C3=O)cc2s1)NC1CCCCC1 (centres undefined)	-1.2	x
COC(=O)c1cc2n(n1)CC(C)(C(=O)NC1CCCCC1)N(CCc1cccs1)C2=O (centres undefined)	x	1.2
COc1cc(Oc2nnnn2-c2ccccc2)ccc1CO	-0.96	1.3
O=c1c2oc3nc4c(cc3c2ncn1CCc1ccccc1)CCCC4	x	-0.54
O=C(CSc1nnnn1-c1ccc(O)cc1)N1CCN(c2ccccc2)CC1	-0.47	x
Cc1nn(C)c(C)c1CNC(=O)Nc1ccccc1Cl	x	0.19

(next part)
SMILES | CDC25B CDK2 inh | TAR Tat displ
O=C1Nc2ccc(I)cc2/C1=C/c1cc(Br)c(O)c(Br)c1 | -2.1 | x
CCC(=O)Nc1c(C#N)c(C)c(C)n1Cc1cccs1 | -2.1 | x
CC(C)(C)c1ccc(S(=O)(=O)/C=C/C#N)cc1 | -0.76 | x
O=c1[nH]c(=O)n(Cc2ccccc2)c2nc[nH]c12 | -1.1 | -0.02
O=C1NC2(CCCCCC2)N=C1c1ccc(Cl)cc1 | -0.93 | x
O=C(O)c1cc(N2CCN(c3ncccn3)CC2)nc2ccccc12 | x | 1.3
COc1cccc(NC(=O)Nc2sc3nc4n(c(=O)c3c2C)CCC(C)CC4)c1 (centres undefined) | -3 | 0.79
COC(=O)c1sccc1NC(=O)Nc1cc(C)oc1C(F)(F)F | -1.3 | x
CC(C)NC(=S)N/N=C/c1cccnc1 | -0.43 | x
Cc1nc2ccccc2n1CCc1nc2c3ccccc3nc(NCC3CCCO3)n2n1 (centres undefined) | -1.4 | 0.08
CC1(C)CC(=O)C2=C(C1)OC1=C(C(=O)CC(C)(C)C1)C2c1ccc(C#N)cc1 | -0.06 | x
CC(C)NC(=O)c1cccn1-c1nnc(N2CCCC2)s1 | x | 0.54
CCc1nc2sc3c(NCCN(C)C)ncnc3c2c2c1CCCC2 | -0.35 | x
CCCc1nnc(SCc2cc(=O)c3cc(C)cc(C)c3[nH]2)n1C | x | -1.3
O=C(NC1CC1)c1nn(-c2ccccc2Cl)nc1CO | -0.44 | 0.28

Compounds from the list above that have a COOH group (2):
SMILES | CDC25B CDK2 inh | TAR Tat displ
Cc1cc2c(n1-c1ccc(C(=O)O)cc1)CCCCC2 | 2.6 | 0.97
O=C(O)c1cc(N2CCN(c3ncccn3)CC2)nc2ccccc12 | x | 1.3

Next part
SMILES | CDC25B CDK2 inh | TAR Tat displ
CCCn1c2ccccc2c2cnn(CC(=O)N3CCc4ccccc4C3)c(=O)c21 | x | 0.38
Fc1ccc2nc(COc3ccc(Cl)cc3)[nH]c2c1 | -0.61 | 0.42
CCCCC(=O)Nc1ccc2nc(NS(C)(=O)=O)sc2c1 | x | -0.5
COc1ccc(OCc2nc3ccccc3[nH]2)cc1 | -1.1 | 0.11
Cc1nn(CC(=O)O)c(=O)c2cc3occc3n12 | -0.13 | -0.26
COc1ccccc1C(=O)OC1=C(C(=O)c2ccccc2)N(C)S(=O)(=O)c2ccccc21 | -1.4 | x
CCc1nn2c(=O)cc(CSc3nnc(-c4ccccc4)o3)nc2s1 | 0.04 | -2.3
CSc1nccc(-c2ccc(S(=O)(=O)N(CCC#N)Cc3ccco3)s2)n1 | -1.2 | x
O=S(=O)(CCc1nc2ccccc2[nH]1)CCc1nc2ccccc2[nH]1 | -0.54 | x
COc1ccccc1Nc1nc(N)nc(CN2CCCCC2)n1 | -1.2 | 0.16
C=CCOc1ccc(/C(O)=C2/C(=O)C(=O)N(CCCN(C)C)C23C(=O)N(C)c2ccccc23)cc1C (centres undefined) | -0.24 | -0.19
O=C1CC(C(=O)Nc2ccc3c(c2)OCCO3)n2c(nc3ccccc32)N1 (centres undefined) | -0.63 | -0.67
CC(=O)N1c2ccccc2CC1C(=O)Nc1ccc2c(c1)OCCO2 (centres undefined) | x | 2.1
Fc1ccc(CN2CCc3nc(Nc4ccc5c(c4)OCCO5)ncc3C2)cc1 | x | 1.8
CCOC(=O)c1c(C)[nH]c(C)c1S(=O)(=O)N1CCCCC1C (centres undefined) | x | 0.25
CN(C)CCCNc1cc(Cl)c(S(=O)(=O)N2CCCCC2)cc1C(=O)O | -1.5 | 0.43
COc1ccc(Br)cc1C1C2=C(CC(C)(C)CC2=O)Nc2nc3ccccc3n21 (centres undefined) | -1.5 | x
O=C(Nc1ccccc1)c1ncn(-c2ccccc2)n1 | -1.4 | 0.06
Cc1cc(C)c2nc(N(CCN(C)C)C(=O)c3ccco3)sc2c1 | x | -0.46
COc1ccc(OCc2nc(-c3ccc4c(c3)[nH]c(=O)c(=O)n4C)no2)cc1 | x | 0.81
c1ccc(OCc2nn3cnnc3s2)cc1 | -1 | -0.62
CN(Cc1ccccc1)C(=O)c1ccc2c(c1)CCN2S(C)(=O)=O | -2.3 | 1.8
COCCN(CCOC)c1ncnc2c1cnn2-c1ccccc1 | x | 1.4
CCC1=NN(C(=O)COc2cc(C)cc(C)c2)C(O)(C(F)(F)F)C1 (centres undefined) | -1.4 | x
Cc1ccc(-c2csc3ncn(C4CCCCC4)c(=O)c23)cc1 | -1.1 | 1.8
O=C(c1cc(-c2ccc(Cl)cc2)on1)N(Cc1ccc(F)cc1)Cc1ccco1 | 1.6 | 1.3
CCOC(=O)C1=C(C)Nc2nc(SCC)[nH]c(=O)c2C1c1ccncc1 (centres undefined) | 0.55 | x
COc1ccc(Br)c(C(=O)Nc2noc3ccccc23)c1 | -1.8 | -0.74
Cc1ccc(C)c(N2CCN(C(=O)C3CCN(C(=O)c4cc5sccc5n4C)CC3)CC2)c1 | -1.8 | x
CC(C)OC(=O)c1nnn(-c2nonc2N)c1CN1CCOCC1 | 0.56 | x
O=C(CSc1nnc2ccc3ccccc3n12)N1CCCc2ccccc21 | 1.4 | -0.13

Taken from above:
c1ccc(OCc2nn3cnnc3s2)cc1 – TAR Tat displ: -0.62
CN(C)CCCNc1cc(Cl)c(S(=O)(=O)N2CCCCC2)cc1C(=O)O – TAR Tat displ: 0.43
Cc1ccc(C)c(N2CCN(C(=O)C3CCN(C(=O)c4cc5sccc5n4C)CC3)CC2)c1 – CDC25B CDK2 inh: -1.8

Bioassay records: PubChem BioAssay, Center for Chemical Genomics, University of Michigan

Outcome played no part in choosing rows; about 0.94% have a hit in one of these screens.
